VDR inh: inhibitors of human vitamin D receptor | VDR-SRC2-3 peptide fluorescence polarization, 2 h | actives 0.93% (n = 400,000) | Potency, µM, for inactives: max response, negative = inhibition, hits mostly inhibitors | P11473; active = well fitted inhibition curve with a large enough effect; inconclusive = small, poorly fitted or top-dose-only effect, or another doubt; inactive = no such curve, though single readings can be large or run the other way; note: series mostly up to about 120 µM
Target sequence (P11473 whole entry, looked up): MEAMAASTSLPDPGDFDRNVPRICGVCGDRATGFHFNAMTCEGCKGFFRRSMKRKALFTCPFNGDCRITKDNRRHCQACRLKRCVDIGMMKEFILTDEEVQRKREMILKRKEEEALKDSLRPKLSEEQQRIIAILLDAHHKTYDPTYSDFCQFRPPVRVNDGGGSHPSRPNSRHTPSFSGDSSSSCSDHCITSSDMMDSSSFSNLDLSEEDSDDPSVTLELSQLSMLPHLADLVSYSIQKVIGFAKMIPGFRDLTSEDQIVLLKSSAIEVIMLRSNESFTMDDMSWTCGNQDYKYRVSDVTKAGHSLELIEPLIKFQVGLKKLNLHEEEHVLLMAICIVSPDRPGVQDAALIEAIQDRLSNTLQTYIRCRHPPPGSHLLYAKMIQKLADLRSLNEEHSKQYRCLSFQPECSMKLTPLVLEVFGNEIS
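Reagent solutions, kept cold and dark, are dispensed first; compounds are then pinned in at 23 nl, plates briefly spun, and incubated 2 h at ambient temperature. Inhibition of VDR–SRC2-3 peptide binding is read by fluorescence polarization.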
* hit, by the source's call; ? = inconclusive; & = joins results of further samples; ! = repeats disagree; [ ] = dose if it differs, or a comment. % is set by controls: 0 for no effect and ±100 for the full control effect; potency is the fitted concentration of half-maximal effect. This is a subset. The share of hits here may be higher or lower than overall.

Molecule,VDR inh
CC(=O)Nc1cccc(Nc2nc(-c3ccccc3F)nc3ccccc23)c1,9%
CC(C)c1ccc(NC(=O)[C@@H](NC(=O)N2CC(=O)Nc3ccccc32)C(C)C)cc1,6%
O=C(CCNC(=O)Cn1ccc2ccccc2c1=O)NCCCN1CCOCC1,12%
O=C(CCc1nc(-c2ccccc2)no1)NC1CCCCCC1,2%
Cc1ccc(S(=O)(=O)N(C)C)cc1NC(=S)N1CCN(Cc2ccc3c(c2)OCO3)CC1,-10%
Cc1ccc2c(c1)c(/C=C/c1cc[n+](C)cc1)c(C)n2C,-21%
COc1cccc(NC(=S)N2CCN(C/C=C/c3ccccc3)CC2)c1,1%
CCOC(=O)N1CCN(C(=S)Nc2cc(OC)c(OC)cc2C(=O)OC)CC1,20%
CC12CC(c3ccccc3O1)C(C(=O)NCc1ccccc1)C(=O)N2 (configuration not stated),7%
Cc1ccccc1OCc1nnc(SCc2cc(=O)[nH]c3ccccc23)o1,3%
Cc1ccc(NS(=O)(=O)c2c(C(=O)N3CCCCCC3)c(C)n(C)c2C)cc1F,11%
Nc1ncnc(Nc2ccccc2C(F)(F)F)n1,0%
CCOC(=O)Cc1csc(NC(=O)CN2CCN(c3ccccc3)CC2)n1,-12%
Cc1cc(CN(C)C(=O)c2ccc(OC3CCN(CCc4ccccc4)CC3)cc2)on1,8%
Cc1ccc2c(CN3C(=O)NC(C)(c4ccc5c(c4)OCO5)C3=O)cc(=O)oc2c1 (configuration not stated),12%
O=CNc1ccc(OC(=O)c2cncc(Br)c2)cc1,-2%
Cc1ccc(-c2c(C#N)c(N)nc3c2CCCCC3)cc1,7%
Cc1cc(N2CCOCC2)ccc1/C=C\[N+](=O)[O-],28µM*
Cc1nc(CN(C)Cc2nc(Cc3cccc(F)c3)no2)cs1,3%
CC(=O)c1cccc(NS(=O)(=O)c2ccc(NC(=O)N3CCCCC3)cc2)c1,-6%
CC(C)(C)c1ccc(C(CC(=O)O)NC(=O)Cc2ccccc2)cc1 (configuration not stated),-2%
COc1ccc(-c2noc(CCC(=O)NCC3CCN(Cc4cccc(C)c4)CC3)n2)cc1,-4%
CCCCC[C@H](O)/C=C/C=C\C/C=C\CCCCCCC(=O)O,1%
CCCCn1c(N)c(N(CC(C)C)C(=O)c2cc(-c3ccco3)nc3ccccc23)c(=O)[nH]c1=O,-8%

Gathered by group: those above with four or more nitrogen atoms (9)
Molecule,VDR inh
CC(=O)Nc1cccc(Nc2nc(-c3ccccc3F)nc3ccccc23)c1,9%
CC(C)c1ccc(NC(=O)[C@@H](NC(=O)N2CC(=O)Nc3ccccc32)C(C)C)cc1,6%
O=C(CCNC(=O)Cn1ccc2ccccc2c1=O)NCCCN1CCOCC1,12%
Cc1ccc(S(=O)(=O)N(C)C)cc1NC(=S)N1CCN(Cc2ccc3c(c2)OCO3)CC1,-10%
Nc1ncnc(Nc2ccccc2C(F)(F)F)n1,0%
CCOC(=O)Cc1csc(NC(=O)CN2CCN(c3ccccc3)CC2)n1,-12%
Cc1nc(CN(C)Cc2nc(Cc3cccc(F)c3)no2)cs1,3%
COc1ccc(-c2noc(CCC(=O)NCC3CCN(Cc4cccc(C)c4)CC3)n2)cc1,-4%
CCCCn1c(N)c(N(CC(C)C)C(=O)c2cc(-c3ccco3)nc3ccccc23)c(=O)[nH]c1=O,-8%

(further entries)
Molecule,VDR inh
Cc1cc(C(=O)OCC(=O)c2ccccc2)c2ccccc2n1,0%
COc1ccc2cc(CN(CC3CCCO3)C(=O)Nc3ccccc3OC)c(=O)[nH]c2c1 (configuration not stated),-15%
Cc1occc1-c1nnc(SCC(=O)NC2CCCCC2)o1,-6%
CCOC(=O)c1c(S(=O)(=O)NCC(=O)Nc2ccc(F)cc2F)c(C)n(C)c1C,-5%
COCCNC(=O)c1snc2ccc(Cl)cc12,6%
Cc1cc2oc(=O)cc(CN3CCC(C)CC3)c2cc1Cl,-4%
Cc1cc(Cl)ccc1OCCCC(=O)N1CCN(C(=O)c2ccco2)CC1,-10%
Cc1ccc2nc(SCC(=O)Nc3cc(C(F)(F)F)ccc3N3CCOCC3)[nH]c2c1,1%
O=C(Cn1nnc(-c2ccccc2-n2cnnn2)n1)NCc1ccccc1,-11%
CCCc1cc(=O)oc2c(C)c(OC(C)C(=O)NCc3ccccn3)ccc12 (configuration not stated),4%
N#CCCN(C(=S)Nc1ccc(S(=O)(=O)N2CCOCC2)cc1)c1ccccc1F,7%
CCN(CC)C(=O)Cn1cc(C(=O)C(=O)NCCCN2CCCCC2)c2ccccc21,6%
CN(C)C(CNC(=O)c1cccc(OC(F)F)c1)c1ccco1 (configuration not stated),-17%
CCCc1cc(=O)oc2c(C)c(OS(C)(=O)=O)ccc12,0%
Cc1ccc(CCNC(=O)C2CCN(S(=O)(=O)N3CCC4(CC3)OCCO4)CC2)cc1,-15%
Cc1ccc(NC(=O)Cn2cccc2C2=NC(c3ccccc3)CO2)cc1C (configuration not stated),-5%
O=C(COc1ccc(S(=O)(=O)N2CCCCC2)cc1Cl)N1CCCC1,-6%
O=C1Nc2ccccc2C1c1ncc(C(F)(F)F)cc1Cl (configuration not stated),-12%
COc1ccc(S(=O)(=O)N(C(C)=O)c2ccc(OC(C)=O)c3ccccc23)cc1[N+](=O)[O-],0%
CCOc1ccc(CN(C)C(C)C(=O)Nc2ccc([N+](=O)[O-])cc2Cl)cc1OC (configuration not stated),-11%
Cc1ccc(NS(=O)(=O)c2cc(C(=O)N3CCN(C)CC3)ccc2C)cc1,2%
CCOc1c(N2CCCCC2)c(=O)c1=O,1%
COCCCNC(=O)CSc1nc2c(sc3ccccc32)c(=O)n1CCc1ccc(OC)c(OC)c1,4%
COc1ccc(OC)c(/C=C/c2[nH]c(=O)[nH]c(=O)c2[N+](=O)[O-])c1,?

Some of the entries above, set out differently.
VDR inh | molecule
0% | COc1ccc(S(=O)(=O)N(C(C)=O)c2ccc(OC(C)=O)c3ccccc23)cc1[N+](=O)[O-]
-11% | CCOc1ccc(CN(C)C(C)C(=O)Nc2ccc([N+](=O)[O-])cc2Cl)cc1OC (configuration not stated)
2% | Cc1ccc(NS(=O)(=O)c2cc(C(=O)N3CCN(C)CC3)ccc2C)cc1

Later entries
Molecule,VDR inh
CCOC(=O)/C(=N/Nc1ccc(Br)cc1)N1CC(C)OC(C)C1 (configuration not stated),-12%
Nc1nnc(SCC(=O)N2CCN(Cc3ccccc3)CC2)s1,-9%
O=C(c1cccs1)N1CCN(c2ccc([N+](=O)[O-])cc2F)CC1,5%
COCCNc1nc(-c2ccc(C(=O)N(C)C)cc2)nc2ccccc12,23%
Cc1ccc(NC(=S)NNC(=O)Nc2ccccc2)cc1,4%
CN(C)c1ccc(C(=O)OCC(=O)c2ccc[nH]2)cc1,19%
CCOC(=O)CN1C(=O)CSc2ccccc21,10%
O=C1C(Cc2c[nH]c3ccccc23)NC(=S)N1Cc1ccccc1 (configuration not stated),6%
CCn1cnc2cc(NC(=O)c3cccs3)ccc21,1%
COc1ccc(-n2nc([N+](=O)[O-])c(=NCCc3ccc(OC)c(OC)c3)n2O)cc1,-15%
O=C(NCc1cccnc1)/C(=C\c1ccc(-c2cccc(Cl)c2)o1)S(=O)(=O)c1ccccc1,45µM*
Cc1cc(OC(C)C(=O)NC(Cc2c[nH]c3ccc(O)cc23)C(=O)O)c2c(C)cc(=O)oc2c1 (configuration not stated),7%
Nc1ncnc2c1ncn2[C@@H]1O[C@H](CNC(=O)[C@@H]2CCCN2S(=O)(=O)c2ccc(F)cc2)[C@@H](O)[C@H]1O,-14%
COc1ccc(N2CCN(C(=O)CNC(=O)c3ccc(C(C)(C)C)cc3)CC2)cc1,-1%
COc1ccc(CCNC(=O)COc2cccc(-n3cnnn3)c2)cc1,5%
CCOc1ccccc1N1CCN(C(=O)c2ccccc2)CC1,0%

Cc1cc([N+](=O)[O-])c(N2CCC[C@@H]2C(=O)O)c([N+](=O)[O-])c1
  VDR inh = -13%

CC1(C(=O)N2CC3(CC(c4cccc([N+](=O)[O-])c4)=NO3)C[C@H]2C(=O)NCC(N)=O)CC1 (some centres not stated)
  VDR inh = 7%

CC(C(=O)c1ccccc1)[n+]1cccc(C(N)=O)c1 (configuration not stated)
  VDR inh = 0%

CCOC(=O)c1ccc(NC(=O)COc2ccc(S(=O)(=O)N3CCCC3)cc2)cc1
  VDR inh = -9%

O=C1C=C(c2cc3ccccc3s2)C[C@@H](c2ccc(F)cc2)C1
  VDR inh = 3%

O=C(CN1C(=O)NC2(CCc3ccccc32)C1=O)c1ccc(Br)cc1 (configuration not stated)
  VDR inh = 51%[activator]

COc1ccc(CCNC(=O)CCCOc2cc(=O)n(C)c3ccccc23)cc1OC
  VDR inh = -7%

CCN(CC)S(=O)(=O)c1nnc(NC(=O)COc2ccccc2)s1
  VDR inh = 6%

NC(N)=N[C@@H](CCC(=O)O)C(=O)O
  VDR inh = -1%

CCOc1ccccc1NC(=O)N1CCC(n2c(C)nc3cccnc32)CC1
  VDR inh = 4%

CCn1c(SCC(=O)Nc2nc(C)cs2)nnc1C(NC(=O)c1ccccc1Cl)C(C)C (configuration not stated)
  VDR inh = 7%

O=C(Cn1c(=O)n(Cc2ccc3c(c2)OCO3)c(=O)c2oc3ccccc3c21)Nc1ccccc1
  VDR inh = 8%

Cc1cccc(-n2nnnc2SCc2csc(-c3ccccc3)n2)c1
  VDR inh = -16%

CC(=O)NC1(C(F)(F)F)C(=O)Nc2c1c(=O)[nH]c(=O)n2Cc1ccco1 (configuration not stated)
  VDR inh = 4%

O=C(NCCc1ccccc1O)c1cc2c(cc1[N+](=O)[O-])OCO2
  VDR inh = -17%

O=C(CCOc1ccccc1)N(Cc1cccnc1)c1nc2c(Cl)cccc2s1
  VDR inh = 1%

CCOc1ccc2oc(C(=O)N(Cc3nnc(-c4ccccc4Cl)o3)C3CC3)c(C)c2c1
  VDR inh = -9%

Cc1ccc(NC(=O)COc2ccccc2C(=O)NCCc2ccccc2)cc1
  VDR inh = 3%

COc1ccc(N2CCN(C(=O)Nc3cccc(C(F)(F)F)c3)CC2)cc1
  VDR inh = 6%&-8%

Cc1ccc(NC(=O)Cn2cc3c(n2)CCCC3)c(C)c1
  VDR inh = 25%

Nc1sc(-c2ccccc2)n[n+]1Cc1cccc2cccnc12
  VDR inh = -19%

CN1CCN(CC(=O)Nc2ccc(S(=O)(=O)N(C)C)cc2)CC1
  VDR inh = -12%

COc1cccc(/C=C/C(=O)OCC(=O)N2CCCC2)c1OC
  VDR inh = 7%

CCOC(=O)c1ccc(CNC(=O)Cn2nnc(-c3ccccc3F)n2)o1
  VDR inh = -21%

CSCC[C@@H](Nc1nc(-c2ccccc2)nc2c1oc1ccccc12)C(=O)O
  VDR inh = -5%

OC(COc1ccc(Br)cc1)CN1CCOCC1 (configuration not stated)
  VDR inh = 3%

N#CC1=C2SCN(C3CCCCC3)CN2C(=O)CC1c1ccc(F)cc1 (configuration not stated)
  VDR inh = 18µM*

CCOC(=O)C1CCCN(S(=O)(=O)c2ccc(-c3cc(C)no3)s2)C1 (configuration not stated)
  VDR inh = -10%

O=S(=O)(Nc1cccnc1)c1ccccc1
  VDR inh = -7%&-3%

S=c1[nH]nc(-c2cc(-c3ccco3)[nH]n2)n1-c1cccc2ccccc12
  VDR inh = -16%

CCOC(=O)C1CCN(c2ncnc3c2nnn3Cc2ccccc2Cl)CC1
  VDR inh = -7%

CSc1ccc(/C=N/NC(=O)c2ccc(C)c(C)c2)cc1
  VDR inh = -10%

O=C(COC(=O)C1(c2ccccc2F)CCCC1)N1CCc2ccccc21
  VDR inh = -26%

CC1Sc2ccc(S(=O)(=O)CCC(=O)NCc3ccccc3Cl)cc2NC1=O (configuration not stated)
  VDR inh = -11%

CCOC(=O)CSc1nnc(CNc2ccccc2Cl)n1-c1ccccc1
  VDR inh = -5%

Cc1c(Cl)cccc1Nc1ccccc1C(=O)O
  VDR inh = 45µM*!

CCOC(=O)C1/C(=N\O)CC(C)(O)C(C(=O)OCC)C1c1ccc(N(C)C)cc1 (configuration not stated)
  VDR inh = 2%

CN1CCN(/N=C/c2ccc(-c3ccccc3)cc2)CC1
  VDR inh = 11%

COc1ccc(NC(=O)CN2C(=O)NC(C)(C3CCCCC3)C2=O)c(OC)c1 (configuration not stated)
  VDR inh = -1%

O=C(N/N=C/c1ccco1)c1ccc(NC(=O)C2CCCCC2)cc1
  VDR inh = -4%

CCOC(=O)c1ccc[n+](CC(=O)c2ccccc2)c1
  VDR inh = -1%

COc1cccc(CNC(=O)c2ccc3nc[nH]c3c2)c1
  VDR inh = 63%

O=C(NC1CCCCC1)C(c1ccncc1)N(Cc1ccccc1)C(=O)c1ccc(-c2ccccc2)[nH]1 (configuration not stated)
  VDR inh = 4%

Cc1ccc(-c2nnc(Nc3cccc(Br)c3)c3ccccc23)cc1S(=O)(=O)N1CCCCC1
  VDR inh = -9%

O=C(Nc1ccc(Br)cc1)N1CCCC(O)C1 (configuration not stated)
  VDR inh = -8%

c1cncc(CNc2nc(N3CCOCC3)nc(N3CCOCC3)n2)c1
  VDR inh = 2%

COc1ccccc1NC(=O)c1cc(Cl)nc2ccccc12
  VDR inh = 5%

Cn1nnnc1SCSc1nnnn1C
  VDR inh = -4%

Cc1ccc(NC(=O)C2(c3cccs3)CCOCC2)cc1C
  VDR inh = -2%

C[C@@H]1CC[C@@]2(O[C@H](CCO)C[C@@H](O)[C@@H]2O)O1
  VDR inh = 5%

CC1CN(C(=O)/C=C/c2ccccc2[N+](=O)[O-])CC(C)O1 (configuration not stated)
  VDR inh = 0%

O=C(COC(=O)CCN=C1NS(=O)(=O)c2ccccc21)NNC(=O)c1ccc(Cl)cc1
  VDR inh = 1%

CN(Cc1cccc(F)c1)C(=O)CN1CCN(S(=O)(=O)c2ccc3c(c2)OCCCO3)CC1
  VDR inh = -5%

COCCNC(=O)/C(C#N)=C/c1c(F)cccc1Cl
  VDR inh = -9%

Another view of part of the listing above.
VDR inh	mol
-4%	Cn1nnnc1SCSc1nnnn1C
-2%	Cc1ccc(NC(=O)C2(c3cccs3)CCOCC2)cc1C
